Screens (PubChem BioAssay)
GLA inh pH 4.5: blocks human alpha-galactosidase A at pH 4.5. activity change, negative = inhibition, % at 105 µM. P06280. 230,000 tested, under 10 active. purified enzyme, 4-MU-alpha-Gal fluorescence, pH 4.5; inconclusive = small, poorly fitted or top-dose-only inhibition, or a rising curve; inactive = flat fitted curve, though single readings scatter; no compound was filed as active;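 note: 0% = full activity with enzyme and -100% = basal without enzyme; dose as in the result columns while the protocol names 77 µM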
Target sequence (P06280 whole entry, looked up): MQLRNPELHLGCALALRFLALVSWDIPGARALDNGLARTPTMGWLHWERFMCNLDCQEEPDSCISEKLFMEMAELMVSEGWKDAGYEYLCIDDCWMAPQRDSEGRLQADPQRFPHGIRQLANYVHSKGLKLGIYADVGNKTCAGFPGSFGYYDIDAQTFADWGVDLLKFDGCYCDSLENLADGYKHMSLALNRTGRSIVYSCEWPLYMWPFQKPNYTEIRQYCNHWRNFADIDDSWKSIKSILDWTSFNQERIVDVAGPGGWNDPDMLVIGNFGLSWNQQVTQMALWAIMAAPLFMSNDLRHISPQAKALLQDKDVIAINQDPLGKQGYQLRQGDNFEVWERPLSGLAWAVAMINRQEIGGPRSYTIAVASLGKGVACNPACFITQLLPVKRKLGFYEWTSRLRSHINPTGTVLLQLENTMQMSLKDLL
miR-21 reporter: miR-21 reporter, rising signal | HeLa miR-21 FLuc reporter, luciferase, 48 h | Potency, µM (highest dose often 38.3 µM), without a hit: at the highest dose reporter change, positive = more light | 340,000 tested, under 10 active | AID 2288; active = well fitted rising curve with a large enough effect; inconclusive = small, poorly fitted or top-dose-only effect; inactive = no such curve, though single readings can be large or run the other way;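 note: % of control where 0% means no effect; miR-21 action dims this reporter so a rising signal means less miR-21 action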
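Luminescence from a firefly luciferase reporter carrying a miR-21 binding site downstream, stably expressed under a CMV promoter in HeLa cells that make miR-21 endogenously, reports miRNA modulation after 48 h compound exposure up to approximately 40uM final.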
Rango release inh: inhibition of RanGTP-driven Rango-importin beta dissociation; O95149+P62826; Biochemical FRET Rango-importin beta, RanGTP-induced dissociation; Potency, µM (doses to about 46.1 µM), inactives show at the highest dose activity change, negative = inhibition; 340,000 tested, 0.071% active; active means falling FRET ratio curve, often poorly fitted, with flat reads before Ran was added; inconclusive means other falling curves, or compound fluorescence or quenching; inactive means flat or rising ratio curve;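 note: potency is the fitted concentration of half-maximal effect; % of control where 0% means no effect; nearly all actives have a fitted effect of over 45% in size; -100% = wells without RanGTP and RCC1; the record marks most hits as doubtful in a second field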
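Rango (0.1 uM)–importin beta (0.25 uM) complex; RanGTP-RCC1 trigger; 45 min RT; CFP/YFP FRET read.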
Rango complex inh: inhibitors of Rango-importin beta complex formation; Rango CFP/YFP FRET sensor + importin beta, 45 min; AID 540263; Potency, µM (series often up to 92.2 µM), without a hit: at the highest dose inhibition of complex formation; 340,000 tested, 0.031% active; Q14974; active = rising FRET ratio curve, often small or poorly fitted; inconclusive = mostly compound fluorescence or quenching in the first reads; inactive = flat curves in all reads;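 note: potency is the fitted concentration of half-maximal effect; 0% = DMSO wells and 100% = buffer wells lacking importin beta; nearly all actives have a fitted effect of over 15% in size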
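FRET biosensor Rango (snurportin 1 IBB between N-terminal EYFP and C-terminal Cerulean), 50 nM in PBS/1 mM DTT/0.02% Tween-20/0.1% BSA, preincubated 5 min RT with compound; 0.125 microM importin beta added, 45 min RT, CFP/YFP FRET ratio read.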
Active calls of the source: *; ? = inconclusive; . = not tested or not shown; [ ] = another dose, or the depositor's remark.

SMILES	GLA inh pH 4.5	miR-21 reporter	Rango release inh	Rango complex inh
Cc1cccc(C(=O)N2CCCC(CCC(=O)N3CCN(c4ccccn4)CC3)C2)c1 (stereo not given)	.	8%	0%	3.5%
CSCCC(NS(=O)(=O)c1ccc(C)cc1)C(=O)NCC(C)(C)N1CCOCC1 (stereo not given)	.	.	-1%	-4.9%
N#Cc1cccc(NC(=O)COC(=O)c2ccc[n+]([O-])c2)c1	.	.	-14%	?
CNC(=O)COC(=O)c1ccccc1C(=O)c1ccc(Cl)c([N+](=O)[O-])c1	6	?	6%	4.6%
CC(NC(=O)c1cccc(N2CCCC2=O)c1)c1ccc2c(c1)OCCO2 (stereo not given)	2	1%	1%	-0.7%
Cc1cc(OCC(=O)Nc2ccc(OCc3ccccc3)cc2)nc(C(C)C)n1	2	6%	3%	-1.0%
CCOC(=O)C1(C)/C(=N/Nc2cccc(Cl)c2)C(=O)C(=O)N1c1ccccc1 (stereo not given)	-4	-2%	9%	-2.6%
COc1ccc(CCNC(=O)C(=O)NCC2CCCN2S(=O)(=O)c2ccc(OC)cc2)cc1 (stereo not given)	.	.	0%	-3.3%
O=P(c1ccccc1)(c1ccccc1)c1nc(-c2ccccc2)oc1N1CCOCC1	0	-1%	-7%	1.3%
CNC(=O)N(O)C1N(C)C(=O)N(Cc2ccccc2)C1(C)C (stereo not given)	-3	0%	43%	-4.6%
COc1cccc(NC(=O)Cn2c3ccccc3c3nc4n(c(=O)c32)CCCS4)c1	.	-15%	-15%	-0.7%
Cc1ccc(-c2nn(-c3ccccc3)cc2/C=C/C(=O)O)o1	1	-27%	-1%	0.7%
O=C(CCNC(=O)N1CC(=O)Nc2ccccc21)Nc1ccc(Cl)cc1	.	0%	-11%	-2.1%
CC1(C(=O)Nc2cccc(-n3cnnn3)c2)Cc2ccccc2C(=O)O1 (stereo not given)	.	.	-7%	-3.3%
C=CCNC(=S)NCc1ccc(CNC(=S)NCC=C)cc1	-4	0%	?	3.2%
CCC(C)(C)n1nnnc1CN1CCN(C(c2ccccc2)c2ccccc2)CC1	-10	16%	-7%	-1.4%
Cc1ccc2occ(/C=N/NC(=O)c3ccccc3C)c(=O)c2c1	.	25%	8%	2.4%
O=C(O)c1ccc2c3c(cccc13)C(=O)N(c1ccccc1)C2=O	-7	0%	-17%	2.0%
CCN(C(=O)COC(=O)CCOc1ccccc1)c1c(N)n(Cc2ccccc2)c(=O)[nH]c1=O	.	.	9%	1.3%
O=C(Nc1ccc(OC(F)F)cc1)c1cc(S(=O)(=O)N2CCOCC2)ccc1F	.	3%	6%	0.9%
CCS(=O)(=O)n1nc(-c2ccc(Cl)cc2)nc1N	-17	-30%	-7%	-1.1%
Cn1c(=O)c2cc(S(=O)(=O)Nc3cccc(F)c3)ccc2n(C)c1=O	5	6%	-8%	-3.9%
O=C(Nc1c2c(nn1-c1ccccc1)CS(=O)(=O)C2)c1ccc2c(c1)OCO2	.	-5%	-5%	-1.9%
Cn1cnnc1SCC(=O)NC1CCCC1	.	0%	16%	2.5%
O=C(c1ccc(-c2ccc([N+](=O)[O-])cc2)o1)N1CCCCCCC1	.	.	1%	-4.0%
O=C(NCc1ccco1)C1CCN(c2nnc(-n3cccc3)s2)CC1	-2	-26%	-3%	0.1%
O=C(CCc1nnc2ccc(NCc3ccccc3)nn12)NCC1CCN(C2CCCC2)C1 (stereo not given)	.	-5%	-5%	0.0%
NS(=O)(=O)c1cccc(NC(=O)CSc2nn(-c3ccccc3)c(=S)s2)c1	5	24%	2%	2.3%
Nc1cccc2cccc([N+](=O)[O-])c12	.	.	-2%	0.4%
Cc1cc(C(=O)CN2CCN(CC(=O)Nc3cccc(F)c3)CC2)c(C)n1C1CC1	.	.	-17%	1.3%
COc1cc(OC)cc(C(=O)Nc2ccc3c(c2)n(C)c(=O)n3C)c1	.	-17%	13%	-2.7%
COc1cc(NC(=S)NCc2ccc(S(N)(=O)=O)cc2)c(OC)cc1Cl	2	-2%	10%	4.2%
NNC(=O)c1[nH]c(-c2ccccc2)cc1-c1ccccc1	.	17%	-27%	3.1%
COc1ccccc1N1CCN(C(=O)c2ccc3c(=O)n4c(nc3c2)CCCCC4)CC1	.	.	0%	1.2%
CC1CCCCC1NC(=O)c1ccc(-n2cncn2)cc1 (stereo not given)	.	.	9%	0.4%
Cc1nc(C(F)(F)F)nc(Nc2ccc(Br)cc2)c1C#N	-2	0%	0%	-0.1%
CC1(C)NC(=O)N(CCOCCOc2ccc3ccccc3c2Br)C1=O	-12	-36%	-4%	0.6%
COc1ccc(N2C(=O)c3ccccc3NC23CCC(C)CC3)cc1 (stereo not given)	4	-43%	12%	0.3%
Cc1ccsc1C(=O)OCc1nnc(-c2ccccc2)o1	.	.	-1%	-1.6%
CCCC(=O)Nc1ccc2nc(SCC(=O)Nc3nccs3)sc2c1	-4	-10%	3%	-0.4%
CCSC1=C(C#N)C(c2ccc(F)cc2)CC(=O)N1 (stereo not given)	-4	-3%	0%	0.5%
O=C(O)/C=C/C(=O)N1CCN(C(c2ccccc2)c2ccccc2)CC1	2	-2%	-1%	0.3%
COc1ccc(NC(=O)COC(=O)c2cc(OC)c(OC)cc2NC(=O)c2ccco2)cc1OC	12	-1%	-10%	-1.0%
NC1=NC(c2cccc(Cl)c2)N(CCc2ccc(F)cc2)C(N)=N1 (stereo not given)	.	12%	24%	4.3%
COc1cc(/C=N/O)c(Br)cc1OCC(=O)Nc1ccccc1C	-1	-15%	-4%	1.7%
S=C(NC1CCCCC1)N1CCN(c2ccccn2)CC1	-3	-25%	3%	6.3%
COc1ccc(Nc2nc3ccccc3n3cnnc23)cc1	-1	-5%	-8%	-1.4%
CCOc1ccc(N/C(SCc2cccc([N+](=O)[O-])c2)=C(/C#N)C(N)=O)cc1	0[21.1 µM]	14%	0%	6.4%
CCOc1cc(/C=C2/NC(=O)NC2=O)cc(Br)c1OCc1ccc(C(=O)O)cc1	-21	-4%	-1%	7.0%
N#Cc1ccc(N2CCOCC2)nc1	-1	-9%	-5%	0.4%
O=C1c2ccccc2NC(c2ccc(-c3ccccc3F)o2)N1O (stereo not given)	.	.	-21%	-1.6%
Cc1ccc(C2=C/C(=C/c3cccnc3)C(=O)O2)c(C)c1	4	-21%	?	?
c1ccc2c(Nc3nc(-c4ccncc4)nc4ccccc34)cccc2c1	-5	22%	-1%	1.7%
CC1=C(C(=O)OCc2ccccc2)C(c2ccccc2Cl)NC(=O)N1CCCC(=O)O (stereo not given)	.	-1%	-10%	-4.2%
CCCS(=O)(=O)N1CCCC(C(=O)Oc2ccc(Cl)cc2)C1 (stereo not given)	.	0%	-9%	-5.2%
COC(=O)c1ccc(C2C(C#N)=C(N)Oc3cc(O)ccc32)cc1 (stereo not given)	.	-2%	?	?
Cc1ccc(NC(=S)Nc2c(C)n(C)n(-c3ccccc3)c2=O)cc1Cl	9	1%	8%	-0.6%
CS(=O)(=O)N(Cc1ccc(Cl)cc1)c1ccc(C(=O)NCCSCc2ccco2)cc1	-1	19%	-1%	0.1%
COc1ccc(C(=O)N2CC3(C)C4CCC3(C)C2(C#N)C4)cc1OC (stereo not given)	6	-7%	-8%	-3.3%
CCc1nnc(NC(=O)CSc2nccn2-c2cc(C)cc(C)c2)s1	-22	4%	3%	-0.1%
The list continues.
SMILES	GLA inh pH 4.5	miR-21 reporter	Rango release inh	Rango complex inh
Cc1ccc(NC(=O)CN2CCCN(S(=O)(=O)c3ccc(Br)s3)CC2)cc1	-2	1%	6%	?
COc1ccc(C(=O)NC(=S)Nc2ccc3[nH]c(=O)[nH]c3c2)cc1	.	-7%	19%	-1.0%
Cc1ccc(S(=O)(=O)Nc2ccc3oc(=O)sc3c2)c(C)c1	-4	2%	4%	-5.8%
Cc1ccn2c(=O)nc(SCC(=O)Nc3cc(C)on3)nc2c1	.	.	-23%	-4.6%
O=C(O)C1CCCCC1C(=O)Nc1cccc(C(=O)N2CCCCC2)c1 (stereo not given)	-6	-5%	0%	-0.6%
CCOC(=O)c1ccc(NC(=S)NCCC2=CCCCC2)cc1	2	-5%	0%	-1.1%
CCCCCCCCCCCCCCCC[n+]1cccc2ccccc21	-3	?	2%	8.7%
Cc1c(NC(=O)c2ccc(S(=O)(=O)N3CC(C)OC(C)C3)cc2)c(=O)n(-c2ccccc2)n1C (stereo not given)	0	-3%	-14%	0.0%
O=[N+]([O-])c1cccnc1N1CCN(c2ccc(F)cc2)CC1	7	-9%	0%	-1.0%
Cc1cc(C(=O)N/N=C/c2cc(Br)cc(Br)c2OC(=O)c2cccc(F)c2)n[nH]1	-8	2%	3.7µM*	?
Cc1cc(CSc2ccccc2)ccc1NC(=O)c1ccc(CN2CCOCC2)cc1	-15	12%	-6%	0.2%
COCCNC(=S)c1ccc(Br)cc1	-1	-5%	13%	-0.7%
O=C(Nc1ccccc1)c1cc2ccccc2o1	-1	-15%	-13%	0.0%
COc1ccc(Cn2c(=O)[nH]c3cc(C(=O)NCCCN4CCCCC4)ccc3c2=O)cc1	13	-5%	1%	-3.2%
COc1ccc(CC(=O)NCc2nnc(SCCOc3ccccc3)n2C)cc1	-4	-2%	-13%	4.2%
CCn1c(COc2ccc3c(c2)OCO3)nnc1SCC(=O)c1ccccc1	-6	-5%	6%	3.4%
Cc1ccc(S(=O)(=O)N(Cc2ccccc2)c2ccccn2)cc1[N+](=O)[O-]	.	8%	?	8.3%
S=c1[nH]nc(C2CCCCC2)n1/N=C/C=C/c1ccccc1	6	-5%	4%	2.4%
COC(=O)N/N=C(\C)c1ccc(-n2ccnc2)cc1	7	-15%	9%	-1.3%
Cc1cccc(N(C(=O)CCC(=O)Nc2cc(C)on2)C(C(=O)NC2CCCC2)c2ccccc2)c1 (stereo not given)	.	-1%	7%	-1.3%
C=CCNC(=O)c1cccn1-c1ccsc1C(=O)OC	3	4%	-9%	-0.2%
COc1cc(OC)c(C(=O)Nc2ccc(C(=O)c3ccccc3)cc2)cc1OC	.	-6%	-20%	-2.7%
CC[C@@H](CCC=C(C)C)C(=O)N(Cc1ccccc1)c1ccccc1	.	.	9%	3.4%
COc1ccc(NC(=O)c2cc(-c3cccs3)on2)cc1OC	4	-35%	15%	-0.1%
O=C(O)c1cc(O)c2c(c1)[C@H]([C@H]1c3cc(C(=O)O)cc(O)c3C(=O)c3c(O[C@@H]4O[C@H](CO)[C@@H](O)[C@H](O)[C@H]4O)cccc31)c1cccc(OC3O[C@H](CO)[C@@H](O)[C@H](O)[C@H]3O)c1C2=O (stereo not given in full)	.	.	18µM*	?

Filtered by structure, those above with a Cl atom (10)
SMILES	GLA inh pH 4.5	miR-21 reporter	Rango release inh	Rango complex inh
CNC(=O)COC(=O)c1ccccc1C(=O)c1ccc(Cl)c([N+](=O)[O-])c1	6	?	6%	4.6%
CCOC(=O)C1(C)/C(=N/Nc2cccc(Cl)c2)C(=O)C(=O)N1c1ccccc1 (stereo not given)	-4	-2%	9%	-2.6%
O=C(CCNC(=O)N1CC(=O)Nc2ccccc21)Nc1ccc(Cl)cc1	.	0%	-11%	-2.1%
CCS(=O)(=O)n1nc(-c2ccc(Cl)cc2)nc1N	-17	-30%	-7%	-1.1%
COc1cc(NC(=S)NCc2ccc(S(N)(=O)=O)cc2)c(OC)cc1Cl	2	-2%	10%	4.2%
NC1=NC(c2cccc(Cl)c2)N(CCc2ccc(F)cc2)C(N)=N1 (stereo not given)	.	12%	24%	4.3%
CC1=C(C(=O)OCc2ccccc2)C(c2ccccc2Cl)NC(=O)N1CCCC(=O)O (stereo not given)	.	-1%	-10%	-4.2%
CCCS(=O)(=O)N1CCCC(C(=O)Oc2ccc(Cl)cc2)C1 (stereo not given)	.	0%	-9%	-5.2%
Cc1ccc(NC(=S)Nc2c(C)n(C)n(-c3ccccc3)c2=O)cc1Cl	9	1%	8%	-0.6%
CS(=O)(=O)N(Cc1ccc(Cl)cc1)c1ccc(C(=O)NCCSCc2ccco2)cc1	-1	19%	-1%	0.1%

Some of the compounds tested; the hit share may differ from the screen's.
